# Bioassay records as filed in PubChem BioAssay.
# Vaccinia Venus: qHTS for Stage-Specific Inhibitors of Vaccinia Orthopoxvirus: Venus Reporter Primary qHTS; Vaccinia virus Venus reporter expression, fluorescence; Potency, µM (doses to about 36.5 µM), without a hit: at the top dose activity change, negative = inhibition, hits mostly inhibitors; hit rate 0.46% among 330,000; active means well fitted inhibition curve with a large enough effect; inconclusive means small, poorly fitted or top-dose-only effect; inactive means no such curve, though single readings can be large or run the other way; tested in A549 cells; also: nearly all actives have a fitted effect of over 30% in size; inactives centre near -10
# VACV mCherry inh: qHTS for Stage-Specific Inhibitors of Vaccinia Orthopoxvirus: mCherry Reporter Primary qHTS; Vaccinia virus mCherry reporter infection, fluorescence; about a quarter of the inactives have no number; Potency, µM (series often up to 36.5 µM), inactives show at the highest dose activity change, negative = inhibition, usual class: inhibitors; hit rate 0.63% among 310,000; AID 720579, 2013; active = well fitted inhibition curve with a large enough effect; inconclusive = small, poorly fitted or top-dose-only effect; inactive = no such curve, though single readings can be large or run the other way; tested in A549 cells; also: nearly all actives have a fitted effect of over 35% in size; inactives centre near -10
# The depositor's hits bear a star; i = inactive; ? = inconclusive; / = not tested or not shown; & = joins results of further samples; [ ] = dose if it differs, or a comment. % is scaled to controls: 0 for no effect and ±100 for the full control effect; potency is read from the fitted curve at half-maximal effect.
mol,VACV mCherry inh,Vaccinia Venus
COCCCNC(=O)C1CCN(c2cc(C)nc3c(-c4ccc(OC)c(OC)c4)c(C)nn23)CC1,1%,1%
COC(=O)C1=C(C)NC(C)=C(C(=O)OC)C1C(=O)OCC(=O)NC1CCCCC1C (stereo not given),i,2%
CCN(CC(=O)Nc1ccccc1OC)CC(=O)Nc1ccccc1C(F)(F)F,-14%,-21%
COc1cc(C2Nc3ccccc3C(=O)N2Cc2ccccc2)ccc1OCc1ccccc1 (stereo not given),-11%,-9%
COc1ccc(Cn2c(SCC(=O)N3CCN(c4ccc(F)cc4)CC3)nc3ccccc32)cc1,-10%,-16%
O=C(NCc1ccc(F)c(F)c1)c1ccc(-c2ccc(F)c(F)c2)c2ccoc12,-28%,-20%
CN(CC(=O)Nc1ccccc1-c1ccccc1)C1CCCCC1,/,-40%
CCOC(=O)CC(=O)CSc1nnc2sc3ccccc3n12,i,-6%
COC(=O)c1sc(NC(=O)c2c(OC)cccc2OC)c(C#N)c1C,-16%,-3%
COc1ccc(Cl)cc1NC(=O)CN(C)C(=O)CCCc1c[nH]c2ccccc12,?,-26%
O=C(CSc1nc2ccc(F)cc2c(=O)n1-c1ccccc1)Nc1ccc2c(c1)CCC2,i,-15%
Cc1ccc(N(C)S(=O)(=O)c2cc(-c3cnc(C4CC4)o3)ccc2C)cc1,-12%,-12%
CCC1=Nc2cc(C(=O)NCc3ccc(C)cc3)ccc2Sc2ccc(C)cc21,?,-23%
N#Cc1cccc(NC(=O)CCN2C(=O)C3CCCCC3C2=O)c1 (stereo not given),-14%,1%
CCOC(=O)C[C@H]1c2ccc(C(F)(F)F)cc2S(=O)(=O)N1C(C)C,-12%,-13%&-9%
Brc1ccc(-c2ccc(/C=N/Nc3nc(N4CCOCC4)nc(N4CCOCC4)n3)o2)cc1,i,-4%
Cc1ccccc1-c1n[nH]c(=S)o1,/,?
COc1cc(C2C(C#N)=C(N)N(N(C)C)C3=C2C(=O)CCC3)ccc1O (stereo not given),-3%,-12%
CCOC(=O)c1c(NC(=O)COC(=O)c2cc(OC)c(OC)cc2[N+](=O)[O-])sc(C)c1C,-3%,-5%
Cc1cc(C)cc(NC(=O)CSc2oc(-c3ccccc3)nc2S(=O)(=O)c2ccccc2)c1,-28%,-29%
O=C(Oc1cccc2ccccc12)c1cc(Cl)nc2ccccc12,-13%,4%
CC1=C(C(=O)N(C(C)C)C(C)C)CC(CC(=O)NC2CCCC2)C(=O)N1Cc1ccc(F)cc1 (stereo not given),19%,-9%
C=CCn1c(SCC(=O)Nc2cccc(S(N)(=O)=O)c2)nc2sc(C)c(C)c2c1=O,-8%,-23%
Cc1cc(C)n2nc(CC#N)c(C#N)c2n1,-5%,7%
O=C(NN1CCOCC1)c1ccc(Br)cc1,i,-11%
Cn1nccc1C(=O)N1CCN(c2ncccn2)CC1,i,7%
O=S(=O)(NCC1NCCc2ccccc21)c1ccccc1 (stereo not given),-5%,-10%
COCCCN(C(=O)CCSc1ccc(F)cc1)c1c(N)n(Cc2ccccc2)c(=O)[nH]c1=O,-12%,-3%
CCc1ccc(-c2[nH]nc3nc(-c4ccc(OC)cc4)cc(C(=O)NCCc4ccc(OC)c(OC)c4)c23)cc1,?,-22%
C=CCn1c(Cc2nc3ccc(Cl)cc3[nH]2)n[nH]c1=S,-10%,-7%
CC(C)(C)C(=O)N1CCN(c2ccc([N+](=O)[O-])cc2-n2cccc2)CC1,-3%,15%
CSc1nc(-c2ccco2)nn1C(=O)Cc1ccccc1,-12%,-3%
CCOc1ccc(S(=O)(=O)Nc2cc(Cl)ccc2O)cc1,/,-46%
N#CCC(=O)Nc1ccc(C(=O)NCC(c2ccco2)N2CCCCC2)cc1 (stereo not given),i,-10%
CCc1ccc(-n2c(=O)c3c4c(sc3n(CC(=O)NCCCOC)c2=O)CCC4)cc1,-9%,-10%
CN1CCN(C(=O)Cn2c(=O)oc3cc(S(=O)(=O)NCc4ccccc4)ccc32)CC1,i,0%
O=C(Nc1cc(S(=O)(=O)N2CCCC2)ccc1OCC(F)(F)F)c1ccccc1F,i,?
c1cc2c(c(NC3=NCCCS3)c1)CCCC2,-12%,-8%
COc1ccc(S(=O)(=O)NCCC(=O)OCC(=O)NC2CC2)cc1,-6%,1%
O=C(COC(=O)c1sc2cc(F)ccc2c1Cl)Nc1ncc(Cl)cc1Cl,-1%,-13%
COc1ccc(CCNC(=O)c2ccn[nH]2)cc1OC,-8%,-16%
O=C(C(=O)N1CCC(c2ccccc2)CC1)c1ccccc1,i,-5%
CC(C)n1c(CN(C)Cc2ccccc2)nc2c1c(=O)n(C)c(=O)n2C,i,-8%
CCOc1[nH]n(-c2ccc(Cl)cc2)c(=O)c1C=Nc1ccc(O)cc1,?,-26%
N#CC1=C(SCC(N)=O)NC(=O)CC1c1ccccc1Cl (stereo not given),i,-14%
CC(=O)N1CCCc2cc(S(=O)(=O)N(C)CC(=O)Nc3ccc(F)cc3Cl)ccc21,-11%,-18%
O=C(CSC1=Nc2ccccc2N=C(c2ccc(F)cc2)C1)Nc1cc(F)ccc1F,-10%,-4%
O=C(O)c1cc(N/N=C/c2c(O)ccc3ccccc23)ccc1Cl,-3%,-13%
CC(C)(Oc1ccc(Cl)cc1)C(=O)Nc1ccc(-c2nc3ncccc3o2)cc1,-6%,-11%
COc1ccc(C(=O)NC(=S)Nc2ccc(CN3CCOCC3)cc2)cc1,-18%,-30%
CC(CNC(=O)c1cncc(O)c1)NC(=O)c1cncc(O)c1 (stereo not given),/,-10%
CCOc1ccc(NC(=O)COc2ccccc2)c([N+](=O)[O-])c1,-8%,-6%
O=C(C=Cc1ccco1)c1cc(Cl)ccc1O,i,-11%
Cc1cc(N2C(=O)c3ccc(C(=O)Nc4ccccc4O)cc3C2=O)no1,i,-11%
O=C(NCc1ccc(Cl)cc1)C(=O)NCC(c1cccs1)S(=O)(=O)c1ccc(Cl)cc1 (stereo not given),i,-21%
CCOCCCNC(=O)c1[nH]c2cc(OC)ccc2c1Sc1ccccc1,-10%,-15%
O=C(O)CCCNC(=O)c1nn(Cc2ccccc2)c(=O)c2ccccc12,i,-2%
O=C(CCC(=O)N1CCOc2ccccc21)NCCc1ccccc1,i,-13%
COc1c(S(=O)(=O)NCCCN2CCOCC2)ccc(Cl)c1Cl,-11%,2%
CC(NS(=O)(=O)c1ccc(F)cc1)C(=O)Nc1ccc2c(c1)OCCO2 (stereo not given),-11%,-16%

# (more compounds)
mol,VACV mCherry inh,Vaccinia Venus
CC1=C(C(=O)N(C(C)C)C(C)C)CC(CC(=O)NCCN2CCOCC2)C(=O)N1Cc1ccc(F)cc1 (stereo not given),i,-3%
Cn1c(N)c(C(=O)COC(=O)Cc2cccs2)c(=O)n(C)c1=O,i,-6%
CCC(C)OC(=O)C1=C(C)OC23OC(N)=C(C#N)C12C(=O)c1ccccc13 (stereo not given),i,-29%
CCCCN(C=O)c1c(CC)nc2ccc(C(=O)NCCc3ccccn3)cn12,-14%,0%
COc1ccc(-c2nnc(SCC(=O)Nc3nc4ccccc4s3)n2C)cc1,i,-10%
COc1ccc(NC(=O)Nc2cccc(NC(C)=O)c2)c(OC)c1,i,7%
Cc1cc(C)n(CCC(=O)Nc2ccc(Cl)cc2)n1,-7%,-9%
Cc1ccc(Cn2c(CN3CCC(C(=O)NCC(C)c4ccccc4)CC3)cc3ccccc32)cc1 (stereo not given),-18%,-16%
COc1ccc(-n2c(SCC(=O)N3CCOCC3)nc(O)cc2=O)cc1,i,-8%
COc1ccc(C(=O)NCCN2CCN(C(=O)c3ccc(OC)cc3)CC2)cc1,-13%,-9%
COc1ccc(S(=O)(=O)c2c(Nc3cccc(C)c3C)sc(C(=O)c3ccccc3)c2N)cc1,-28%,-24%
CCCCCCn1cc(C(=O)O)c(=O)c2ccccc21,-20%,-12%
OCCCCC#Cc1c(-c2ccsc2)sc2ccccc12,-25%,-28%
CCOC(=O)N1CCN(C(=O)CNC(=O)c2ccc(Br)o2)CC1,i,-5%
COc1ccc(CN2CC(=O)N(c3ccc(C)c(C)c3)C2=S)cc1OC,-2%,-2%
O=C(C1CC1)N1N=C2CCCCC2C1(O)C(F)(F)F (stereo not given),-14%,-23%
COc1ccc(C(=O)C2CCCN(Cc3cccn3-c3ccccn3)C2)cc1F (stereo not given),-5%,-22%
CC(=O)Nc1ccc(NS(=O)(=O)c2cc3c4c(c2)CC(=O)N4CCC3)cc1,-13%,-3%
COc1ccc(NC(=O)CC2C(=O)N(Cc3cccs3)C(=S)N2C(C)C)cc1 (stereo not given),-16%,-3%
C[C@H](NC(=O)N1C[C@H]2C[C@@H](C1)c1cccc(=O)n1C2)C(=O)Nc1ccccc1F,-6%,-1%
CCN1CCN(c2ccc(NC(=O)Cc3ccccc3)cc2)CC1,-29%,?
CCc1ccc2c(c1)cc(CN(C(=S)Nc1cccc(C)c1)C1CC1)c1nnnn12,i,-17%
CCS(=O)(=O)c1nc(S(=O)(=O)c2ccc(C)cc2)c(N2CCCCCC2)s1,?,-19%
COc1cc(NC(=O)CCC(=O)Nc2ccc3nc(N4CCOCC4)cc(C)c3c2)cc(OC)c1OC,-8%,-14%
O=S(=O)(NCCS(=O)(=O)N1CCN(c2cccc(Cl)c2)CC1)c1ccc(F)cc1,-15%,-10%
Cc1ccc(S(=O)(=O)c2cn(CC(=O)Nc3ccc4c(c3)OCO4)c3ccccc3c2=O)cc1,-13%,-10%
CC1(C(=O)O)CCCN(C(=O)c2ccc(OC(F)F)cc2)C1 (stereo not given),11%,-2%
Nc1ccccc1Cl,i,-13%
Oc1c(C(c2ccccc2Cl)N2CCCC2)ccc2cccnc12 (stereo not given),?,?
O=C(Cc1c(F)cccc1Cl)NCCc1c[nH]c2ccccc12,-19%,-7%
COc1ccc(N2CCN(C(=O)C3CCN(C(=O)c4ccc([N+](=O)[O-])cc4)CC3)CC2)cc1,-15%,-3%
O=C(CN1CCCC1)Nc1ccc(NC(=O)Nc2ccccc2)cc1,/,9%
COc1ccc(-c2cc(C(=O)N3CCCCCC3)c3ccccc3n2)cc1OC,-6%,-13%
COc1ccc(C2C(C(=O)OCC(=O)Nc3ccc(C)cc3)CCC(=O)N2c2ccc(OC)cc2)cc1 (stereo not given),i,-7%
O=C(COc1ccc(Cl)cc1)N1CCN(S(=O)(=O)c2ccc(Cl)cc2)CC1,-7%,-24%
CC(=O)Oc1ccc(-c2csc(Nc3ccc(S(N)(=O)=O)cc3)n2)cc1,-25%,2%
COC(=O)[C@@]1(Sc2ccc(C)cc2)CC(=O)N(P(=O)(OC)OC)[C@@H]1c1ccccc1,22%,-1%
OC1/C(=C/c2ccc(F)cc2)N2CCC1CC2 (stereo not given),-20%,-12%
CN1CCN(Cc2c(O)ccc3cc(-c4ccccc4)c(=O)oc23)CC1,-4%[7.34 µM],-1%[7.34 µM]
CCC1Nc2ncnc(N3CCCCC3)c2N(Cc2ccccc2)C1=O (stereo not given),i,-17%
COc1ccccc1-c1nc(SCC(=O)N2CCOCC2)n[nH]1,19%,11%
CCC(=O)Oc1c(Sc2ccc(C)cc2)c(C)nn1-c1ccccc1,i[7.34 µM],-10%[7.34 µM]
CSc1ccccc1NC(=O)Nc1cccc(F)c1,i,2%
CN(C)c1ccc(-c2nc(-c3cccs3)c(-c3cccs3)[nH]2)cc1,-2%,-26%
FC(F)Sc1ccc(-n2cc(-c3ccccc3)[n+]3c2CCC3)cc1,-10%,-13%
COc1ccc(-n2nc(C(=O)NCC(=O)N3CCN(c4ccccc4)CC3)c3ccccc3c2=O)c(OC)c1,-7%,-16%
Cc1cc(NC(=O)c2ccc(Cl)cc2Cl)n(CCC#N)n1,-15%,-4%
O=C(CSc1nc2ccccc2nc1Cc1ccccc1F)Nc1cccc(C(F)(F)F)c1,-8%,0%
O=C(c1cccc(NS(=O)(=O)c2ccc(F)c(F)c2)c1)N1CCN(Cc2ccccc2)CC1,-5%,-20%
Cc1ccc(C)c2[nH]c(=O)c(CN(CCN3CCOCC3)Cc3nnnn3CC3CCCO3)cc12 (stereo not given),-18%,-2%
CC(C)CN1CCC(=O)N(CCO)CC1,-14%&-16%,-8%&-12%

# No new results follow: entries from further up.
mol,VACV mCherry inh,Vaccinia Venus
COCCCNC(=O)C1CCN(c2cc(C)nc3c(-c4ccc(OC)c(OC)c4)c(C)nn23)CC1,1%,1%
COC(=O)C1=C(C)NC(C)=C(C(=O)OC)C1C(=O)OCC(=O)NC1CCCCC1C (stereo not given),i,2%
CCN(CC(=O)Nc1ccccc1OC)CC(=O)Nc1ccccc1C(F)(F)F,-14%,-21%
COc1cc(C2Nc3ccccc3C(=O)N2Cc2ccccc2)ccc1OCc1ccccc1 (stereo not given),-11%,-9%
COc1ccc(Cn2c(SCC(=O)N3CCN(c4ccc(F)cc4)CC3)nc3ccccc32)cc1,-10%,-16%

# Rows are unselected. About 0.87% of those tested had a hit in this group.
